gsp antag – qHTS for Antagonists of gsp, the Etiologic Mutation Responsible for Fibrous Dysplasia/McCune-Albright Syndrome: qHTS. 0.4% of 340,000 active. Potency, µM (series often up to 76.9 µM), inactives show at the highest dose activity change, negative = inhibition, hits mostly inhibitors. gsp-mutant cells, cAMP HTRF, 30 min; control for the full effect not named in the record; active = falling curve of any shape with a large fitted effect; inconclusive = falling curve, mostly with a smaller effect; inactive = flat or rising curve; cell line not stated here;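 further: intracellular cAMP measured with PDE inhibitor Ro 20-1724 present during compound exposure; potency means the concentration at half of the fitted maximal effect; on the % scale 0 is the no-effect control and ±100 the full control effect; nearly all actives have a fitted effect of over 65% in size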
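HTRF cAMP measurement after 30 min RT detection following 30 min, 37C compound treatment alongside […] (added as 300 uM solution) in G418-selected cells seeded at 2000/well and grown 16–24 h.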
TRPV1 potentiator – HTS Assay for Compounds that Act as Potentiators of the Vanilloid Receptor 1 | AID 540277, 2011 | TRPV1-expressing cells, Fluo-8 calcium influx, capsaicin EC20 potentiation; host cell line not named in the record; control for the full effect not named in the record | 0.02% of 320,000 active | Transient receptor potential cation channel subfamily V member 1 (Homo sapiens), Q8NER1 | potentiation, % at 8.33 µM; active means potentiation above 80%; inconclusive means 30% to 80%; inactive means below 30%; further: 0% is about no effect
Target sequence (Q8NER1 whole entry, looked up): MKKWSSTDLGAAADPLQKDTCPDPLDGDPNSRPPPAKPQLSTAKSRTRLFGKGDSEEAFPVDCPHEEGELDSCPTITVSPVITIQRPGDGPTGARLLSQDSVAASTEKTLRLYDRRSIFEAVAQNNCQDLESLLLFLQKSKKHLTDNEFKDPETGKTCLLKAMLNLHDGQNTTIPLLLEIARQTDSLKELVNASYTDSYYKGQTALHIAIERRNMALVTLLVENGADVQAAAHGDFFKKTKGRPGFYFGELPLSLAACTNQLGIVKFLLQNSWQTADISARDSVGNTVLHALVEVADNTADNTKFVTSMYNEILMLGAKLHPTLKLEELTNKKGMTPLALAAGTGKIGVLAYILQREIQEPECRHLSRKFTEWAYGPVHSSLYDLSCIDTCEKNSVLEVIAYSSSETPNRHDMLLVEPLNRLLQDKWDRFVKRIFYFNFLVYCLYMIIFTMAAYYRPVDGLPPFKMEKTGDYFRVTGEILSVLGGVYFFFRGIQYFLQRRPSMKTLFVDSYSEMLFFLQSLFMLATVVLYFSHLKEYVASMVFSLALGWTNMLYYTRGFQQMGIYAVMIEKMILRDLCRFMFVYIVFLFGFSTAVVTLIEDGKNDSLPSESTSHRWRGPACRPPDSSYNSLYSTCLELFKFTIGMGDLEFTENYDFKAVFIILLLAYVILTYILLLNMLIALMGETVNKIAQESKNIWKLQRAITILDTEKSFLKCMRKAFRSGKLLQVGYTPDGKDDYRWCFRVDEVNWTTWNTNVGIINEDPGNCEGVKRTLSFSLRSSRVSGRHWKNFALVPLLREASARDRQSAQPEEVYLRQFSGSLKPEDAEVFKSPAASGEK
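TRPV1-expressing cells were cultured overnight at 35.5C and loaded with Fluo-8 calcium dye for 40 to 90 min at room temperature. After a 10 s baseline, compound was added and calcium influx was read kinetically for 3 min (ex 480/em 520 nm).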
CtBP-E1A inh – qHTS Assay for Inhibitors of the CtBP/E1A Interaction; activity change, % (concentration not given with the values); AlphaScreen GST-E1A/His-CtBP binding, 1536-well; stronger effect = lower value; control for the full effect not named in the record; 0.49% of 340,000 active; CtBP / adenovirus E1A interaction (AlphaScreen); AID 651724, 2012; in the data active means activity change below about -65%; inconclusive means about -30% to -65%; inactive means above about -30%; further: on the % scale 0 is the no-effect control and ±100 the full control effect
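AlphaScreen with 125 nM GST-E1A and 125 nM His-CtBP (5X stocks) in Tris pH 8.0, 300 mM NaCl, BSA, Tween 20, TCEP. Compounds preincubated 2 h at 37 deg C, then glutathione donor/nickel acceptor beads added for 1 h at 37 deg C in dark.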
Menin-MLL FL inh – qHTS Assay for Inhibitors Targeting the Menin-MLL Interaction in MLL Related Leukemias: Competition With Fluorescein Labeled MLL-derived Peptide | Fluorescence polarization, fluorescein-MLL peptide displacement from menin | FP activity change, % at 61.4 µM | 290,000 tested, under 10 active | AID 1766, 2009; inconclusive = falling polarisation curve, or a change in total fluorescence; inactive = total fluorescence flat and polarisation flat or rising; no compound was filed as active; the % refers to the polarisation; negative = inhibition;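 further: % of control where 0% means no effect; inhibitors lower the polarisation; unlabelled MLL peptide was the positive control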
gsp agonist – qHTS for Agonist of gsp, the Etiologic Mutation Responsible for Fibrous Dysplasia/McCune-Albright Syndrome: qHTS. gsp mutant cells, cAMP HTRF, 30 min; control for the full effect not named in the record. Potency, µM (top dose mostly 76.9 µM), without a hit: at the highest dose activation (cAMP increase), actives largely listed as activators. 0.13% of 340,000 active; active = well fitted activation curve with a large enough effect; inconclusive = small, poorly fitted or top-dose-only effect, or another doubt; inactive = no such curve, though single readings can be large or run the other way; cell line not stated here;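 further: phosphodiesterase inhibitor Ro 20-1724 added with compounds to block cAMP breakdown; potency means the concentration at half of the fitted maximal effect; nearly all actives have a fitted effect of over 60% in size; about a fifth of the inactives were tested at one dose only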
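Cells stably selected in G418 were plated at 2000/well, grown 16-24 hr, then given compounds in DMSO with the PDE inhibitor […] (300 uM solution added) for 30 min at 37C; cAMP was read by HTRF.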
ClpP mod – qHTS Assay for Activators of ClpP. ATP-dependent Clp protease proteolytic subunit (Bacillus subtilis (strain 168)), P80244. purified B. subtilis ClpP, FRET peptide cleavage, 20 min. Potency, µM (titrated, usually from 57.5 µM), inactives show top-dose activity change, negative = active. 1.9% of 340,000 active. AID 651965, 2013; active = well fitted falling curve with a large enough effect; inconclusive = small, poorly fitted or top-dose-only effect; inactive = no such curve, though single readings can be large or run the other way; further: potency means the concentration at half of the fitted maximal effect; the source files actives as falling curves though it sought activators and does not explain the sign; nearly all actives have a fitted effect of over 65% in size; many hits overshoot -100%
Target sequence (P80244 whole entry, looked up): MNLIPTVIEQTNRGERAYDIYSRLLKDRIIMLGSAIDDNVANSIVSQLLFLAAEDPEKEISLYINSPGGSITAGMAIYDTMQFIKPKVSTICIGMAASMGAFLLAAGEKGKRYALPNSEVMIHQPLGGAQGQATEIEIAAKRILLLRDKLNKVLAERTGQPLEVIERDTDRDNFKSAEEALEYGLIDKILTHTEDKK
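FRET quenching reversal measured ClpP activation: 10 microg/mL B. subtilis ClpP at pH 8 with the FRET-FV decapeptide, read at 430 nm after 320 nm excitation. The 20-min minus 0-min signal was scaled between DMSO/no-enzyme wells and ADEP (5.8 microM final).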
Sfp PPTase inh – qHTS Assay for Inhibitors of Bacillus subtilis Sfp phosphopantetheinyl transferase (PPTase); 4'-phosphopantetheinyl transferase ffp (Bacillus subtilis), Q9F4F7; Biochemical Sfp PPTase activity, qHTS; Potency, µM, inactives show max response, negative = inhibition, usual class: inhibitors; 3.5% of 310,000 active; AID 1490, 2009; active means well fitted inhibition curve with a large enough effect; inconclusive means small, poorly fitted or top-dose-only effect, or another doubt; inactive means no such curve, though single readings can be large or run the other way;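 further: the enzyme is Sfp with the accession as filed and its product quenches rhodamine fluorescence; potency means the concentration at half of the fitted maximal effect; 0% = enzyme reaction without inhibitor and -100% = no enzyme wells; top concentration of the series not given in the record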
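With Hepes-Na pH 7.6 buffer containing 10 mM MgCl2, Sfp (15 nM) modified BHQ-2-YbbR (12.5 uM) using rhodamine-CoA (5 uM). Two reads 30 minutes apart at 525/598 nm yielded each well's rate.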
An asterisk follows results filed as active; u = inconclusive; x = no result given; & = joins results of further samples; [ ] = another dose, or the depositor's remark.

SMILES	gsp antag	TRPV1 potentiator	CtBP-E1A inh	Menin-MLL FL inh	gsp agonist	ClpP mod	Sfp PPTase inh
O=C(CN1CCN(c2ccccn2)CC1)Nc1ccc2ccccc2c1	-14%	-21	-3	-0.5	-1%	5.6%	-11%
Cc1[nH]n(-c2ccccc2)c(=O)c1C=NC1CCCCCC1	-12%	6	x	2.2	3%	0.8%	25%
CCn1cc(C(=O)N2CCn3c(nc4ccccc43)C2)c(=O)c2ccc(C)nc21	15%	-19	5	-12	u	-9.0%	2%
O=C(CCc1nnc(-c2ccc(-c3ccccc3)cc2)o1)NCCc1ccccn1	-20%	-2	-4	-5.0	5%[15.4 µM]	x	-6%
CCC(CC)NC(=O)COn1nnc2ccc(S(=O)(=O)N3CCOCC3)cc21	3%	-8	-20	x	-9%	0.8%	x
CCCNS(=O)(=O)c1ccc(OCC(=O)Nc2ccc3c(c2)OCCO3)cc1	5%	4	10	-0.9	-24%	1.1%	-7%
CC(C)(C)OC(=O)N1CCC2(CC1)Oc1ccc(Cl)cc1C(=O)C21CC(c2ccc(Cl)cc2)=NO1 (centres undefined)	8%	x	-1	x	6%	-3.1%	x
COc1cc(OC)nc(Oc2ccc(N)c(C)c2)n1	6%	2	-6	0.0	24%[15.4 µM]	-2.8%	12%
O=C(NCCC(=O)N1CCN(S(=O)(=O)c2ccc(F)cc2)CC1)Nc1ccccc1	7%	2	-3	x	8%	-2.0%	x
Oc1ccc(C(=Nc2ccccc2)c2ccccc2)c(O)c1	-8%	x	-4	x	11%	x	x
COc1ccc2c(c1)OC[C@H]1[C@H]2N2C(=O)CN(Cc3ccccc3)C(=O)[C@@]2(C)[C@H]1c1ccccc1	-22%	x	7	x	16%	1.1%	x
CCN(CC)c1ccc(C(=O)N/N=C(\C)c2cccnc2)cc1	-5%	1	0	0.2	-8%[15.4 µM]	x	-1%
NNC(=O)c1nc[nH]c1C(=O)Nc1ccccc1	4%	4	u	-4.3	2%	0.0%	25%
O=C(Cn1cnc2ccccc21)NCCCN1CCOCC1	-3%	6	3	2.1	44%	0.1%	-7%
COc1cccc(NC(=O)NC2CC(=O)N(c3ccc4c(c3)OCCO4)C2)c1 (centres undefined)	3%	19	-19	x	8%	-1.7%	x
CC(C)C(OC(=O)c1cccs1)C(=O)NCCc1ccccc1 (centres undefined)	3%	-3	5	-0.1	0%	x	6%
Cc1ccc(-c2noc(CN3CCN(C(c4ccccc4)c4ccccc4)CC3)n2)cc1	-6%	19	-8	2.1	12%	-3.0%	-7%
CC(=O)Nc1ccc(S(=O)(=O)NCC2CCC(C(=O)N3CCCCCC3)CC2)cc1 (centres undefined)	-7%	6	-2	5.2	12%	2.2%	-7%
CC(C)c1ccc(-n2cccc2/C=C2/C(=N)N3C=CSC3=NC2=O)cc1	u	12	-28	9.5	19%[15.4 µM]	-1.1%	-13%
CCOCCCNC(=S)N1CCN(c2nc(-c3ccc(F)cc3)cs2)CC1	u	-6	-7	5.8	u	-0.9%	-3%
COc1ccc(S(=O)(=O)Nc2ccccc2-c2nnn(CC(=O)Nc3ccccc3OC)n2)cc1	-3%	23	2	4.5	10%	1.9%	26%
O=S(=O)(Nc1cccc(S(=O)(=O)N2CCCC2)c1)c1ccc(Cl)s1	9%	-2	4	x	u	2.6%	x
CCN1C(=O)[C@H]2[C@@H](c3ccc(-c4ccc(Cl)c(Cl)c4)c(OC)c3)N3CCCC[C@@]3(C(=O)OC)[C@H]2C1=O	2%	x	x	x	-3%	u	x
Cc1ccc(F)cc1NC(=O)CSc1n[nH]c(N)n1	7%	x	0	x	-13%[15.4 µM]	1.8%	x
Cc1cccc(C(=O)OCC(=O)Nc2c(C)n(C)n(-c3ccccc3)c2=O)c1O	6%	x	4	x	-61%	6.2%	x
N#Cc1ccc(C23CC4(C2)[C@H](CN(Cc2ccc(-c5ccccc5)cc2)[C@@H]4c2ccccc2)C3c2ccccc2)cc1 (some centres undefined)	5%	6	2	2.6&4.9	x	-1.1%	21%&15%
CC(=O)c1cccc(OCC(O)CNCC2CCCCC2)c1 (centres undefined)	9%	0	-4	-0.3	39%[15.4 µM]	-3.7%	3%
CC1CN(S(=O)(=O)c2cccc(C(=O)Nc3ccc(N4CCCCC4)cc3)c2)CC(C)O1 (centres undefined)	x	x	-1	x	-61%[inhibitor]	-2.9%	x
CC(/C=C/c1ccco1)=N/NC(=O)OC(C)(C)C	17%	-6	5	-1.9	10%	1.1%	-23%
C=CCc1c(Cl)nc(C)nc1NCc1ccccc1	-15%	-1	0	-0.4	-41%	x	3%
O=C(CCNC(=O)N1CC(=O)Nc2ccccc21)NCCc1ccc(Cl)cc1	x	x	2	x	-87%[inhibitor]	0.0%	x
CCOC(=O)C1(Cc2cccc(OC)c2)CCN(Cc2cccc3cnccc23)CC1	-4%	-2	-26	0.6	-54%[inhibitor]	-5.1%	u
CCN1CCN(S(=O)(=O)c2cc(C)c(OC)cc2C)CC1	6%	2	2	-4.8	-3%	1.8%	10%
CN(Cc1cc2ccccc2[nH]c1=O)S(C)(=O)=O	9%	7	-4	1.5	-1%	u	5%
Cc1ccc(-c2csc3nc(SCC(=O)N(C)C)n(Cc4ccccc4)c(=O)c23)cc1	u	8	8	-6.1	24%	-5.4%	-8%
NC(=O)C1(C(=O)O)OC1(c1ccc(Cl)cc1)c1ccccc1Cl (centres undefined)	8%	x	-2	x	-14%	x	x
COC(=O)Nc1nnc(-c2ccccc2OC)s1	u	11	6	2.6	-8%[15.4 µM]	1.3%	19%
CCN(CC)CCNC(=S)Nc1ccc2nc(N3CCN(CC)CC3)cc(C)c2c1	7%	-1	-6	-1.1	1%	3.9%	13%
COC(=O)/C=C/c1cc(F)ccc1S(=O)(=O)NC(C)(C)C	10%	x	x	x	-22%	-1.7%&-1.0%	x
C[n+]1ccn(CC(=O)c2cccs2)c1	5%	-8	-2	5.1	14%[15.4 µM]	-2.3%	20%
CCSc1nnc2ccc(-c3ccco3)nn12	5%	8	8	3.2	21%	1.6%	0%
N#CC12C(N)=NC3(OCCO3)C1(C#N)C1=C(CCC1)NC2c1ccccc1 (centres undefined)	-2%	-7	-11	u	2%	-24%	-10%
CCOc1ccc(N(CC(=O)NCCc2ccccc2)C(=O)c2csnn2)cc1	0%	-3	5	-6.1	u	x	4%
O=C(CSc1nnc(-c2ccco2)o1)c1ccccc1Cl	-9%	-13	0	7.1	-36%[inhibitor]	-0.4%	2%
O=C(O)C1C2C=CC(O2)C1C(=O)NC1CCCc2ccccc21 (centres undefined)	4%	5	4	2.7	7%	1.5%	0%
CC1CN(Cc2ccco2)C(=S)NC1=O (centres undefined)	-3%	x	2	x	-1%	x	x
Cc1cc(C)c2c(c1)/C(=c1/sc3n(c1=O)CN(c1ccccc1)CN=3)C(=O)N2	-1%	10	-11	-0.4	1%[15.4 µM]	-1.0%	-3%
Cc1ccc(C(=O)NC2(C(Cl)Cl)N=C(c3ccccc3)N=C2N)cc1 (centres undefined)	7%	-19	-25	-0.1	-4%[15.4 µM]	x	7%
Cc1ccccc1NS(=O)(=O)c1ccc(C(=O)N2CCCCCC2)cc1	-7%	4	-18	x	3%	-3.0%	x
Nn1c(SCC(=O)N2CCCc3ccccc32)nncc1=O	-35%	-7	-8	0.6	15%[15.4 µM]	x	15%
O=C(CCN1C(=O)/C(=C\c2ccccc2)SC1=S)NNC(=O)c1ccccc1O	-12%	-1	-10	4.8	-24%	x	-12%
COc1cc(C(=O)Nc2ccc3nc(N4CCN(C)CC4)cc(C)c3c2)cc(OC)c1OC	2%	22	-26	0.0	u	-12%	-3%
CC(C)C(NC(=O)C(C)N1C(=O)c2ccccc2C1=O)c1ccccc1 (centres undefined)	2%	1	-10	-0.1	25%	x	15%
Fc1cccc(C2NC(=S)NC3=C2N2CCC3CC2)c1 (centres undefined)	2%	11	-13	-3.5	-27%	-0.7%	2%
O=C(NNC(=O)c1cccc(S(=O)(=O)N2CCN(c3ccccc3)CC2)c1)c1ccc(Cl)cc1	-9%	5	-8	-0.6	11µM*	-3.5%	27%
CCCOc1ccccc1C(=O)NCCCC(=O)O	15%	-1	37	2.6	-14%	0.8%	17%
COc1ccc(OC)c2c(N3CC(C)OC(C)C3)cc(C(F)(F)F)nc12 (centres undefined)	-1%	-8	1	1.8	5%	-9.6%	13%
Cc1cc(C(=O)N/N=C/c2cccnc2)c2ccccc2n1	-10%	2	-1	2.2	13%[15.4 µM]	-0.2%	-2%
Cc1cc(NC(=O)COC(=O)C2CCCN2C(=O)c2cccs2)no1 (centres undefined)	1%	-4	9	0.2	-6%	2.1%	18%
CCOc1ccc(Br)cc1S(=O)(=O)Nc1ccc(Cl)c(S(=O)(=O)N(CC)c2ccccc2)c1	u	14	12	2.0	-7%[15.4 µM]	1.2%	19%
O=C(c1ccccc1)c1ccc(N2CCOCC2)c(F)c1	-20%	-28	14	-1.8	-21%	-1.2%	3%
Cc1ccc(Nc2ccc(N3CCN(c4ccc([N+](=O)[O-])cc4)CC3)nn2)cc1	7%	u	x	2.3	4%	-1.1%	17%
O=S(=O)(c1ccccc1F)N1CCN(Cc2nc3ccccc3[nH]2)CC1	-11%	0	2	-5.6	-18%	-0.5%	6%

Complete entries, quoted from the list. Screens in order: gsp antag, TRPV1 potentiator, CtBP-E1A inh, Menin-MLL FL inh, gsp agonist, ClpP mod, Sfp PPTase inh
O=S(=O)(c1ccccc1F)N1CCN(Cc2nc3ccccc3[nH]2)CC1 across the screens: -11%, 0, 2, -5.6, -18%, -0.5%, 6%
COc1ccc(OC)c2c(N3CC(C)OC(C)C3)cc(C(F)(F)F)nc12 (centres undefined) across the screens: -1%, -8, 1, 1.8, 5%, -9.6%, 13%

High-throughput results as filed in PubChem BioAssay.
